Vif TR-FRET: inhibitors of Vif binding to APOBEC3G peptide, primary screen, biochemical, TR-FRET, GST-Vif 1-94, biotin-A3G peptide, dose response retest (AID 1117319) | 260,000 tested, 0.57% active | one-dose inhibition, %; IC50 in µM for titrated hits | TR-FRET GST-Vif / biotin-A3G peptide binding; higher % means a stronger effect; test concentration not given here; strong numbers were not always called active;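 active = above the screen mean plus three standard deviations and confirmed in dose response; inconclusive = results disagree or hit not tested in dose response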;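 note: Vif residues 1-94 fused to GST binding biotinylated APOBEC3G peptide 110-148; 0% = full assay without inhibitor and 100% = GST in place of GST-Vif; retest series ran down from 100 µM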
Calb FLC: C. albicans growth modulation with fluconazole; C. albicans CaCi-2 (fluconazole-resistant clinical isolate) + fluconazole, Alamar Blue growth, 48 h; growth inhibition, % (concentration not given with the values); AID 1979; 300,000 tested, 0.57% active;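 active = most replicates above 75%; inconclusive = exactly half above 75%; inactive = most below 75%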;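 note: all wells also contain fluconazole at 8 µg/ml as a sub-toxic cotreatment; 0% = median of DMSO wells and 100% = median of geldanamycin control wells; wells of about 8 µL received 7.5 nL stock; the first replicate is given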
HNF4A DNA FP: change in binding of human HNF4 alpha to DNA; HNF4a-FITC DNA binding, fluorescence polarization, 1 h; P41235; AID 1224865; 360,000 tested, 0.3% active; activity change, % at 10 µM; in the data active = activity change above about 30%, passing the limit was not always enough;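 note: controls were the assay level and a saturating level of protein; the project sought stronger binding though the title names inhibitors; some compounds called inactive have numbers as strong as hits; positive values seem to mean higher polarization but the record does not say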
B2AR ag: human beta-2 adrenergic receptor agonism by FAP; P07550; Am2.2-beta2AR cells, FAP receptor internalization, flow cytometry; reference of the scale not given here; response, % (no concentration beside the values); 340,000 tested, 0.43% active;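 active = response above a set limit, near 3 SD of response in nonfluorescent compounds, cut at about 42% in these data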;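 note: stock transfer was 100 nL into about 11 µL; a reference agonist was the positive control; negative values mostly stem from fluorescent compounds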
RanGTP-Impb inh: disruptors of Ran-importin-beta complex formation – biochemical, FRET, CFP-Ran, YFP-importin-beta, homogeneous, primary screen. cell-free CFP-Ran/YFP-importin-beta FRET ratio. inhibition, % (no concentration beside the values). 300,000 tested, 1.1% active. AID 2216;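 active = most replicates above 15%; inconclusive = exactly half above 15%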;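 note: 0% = DMSO wells and 100% = Ran loaded with GDP instead of GTP; wells of about 40 µL received 100 nL stock; the first replicate is given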
LANA-H2B inh: blocks KSHV LANA binding to histone H2A/H2B. cell-free LANA-H2A/H2B peptide, fluorescence polarization. 320,000 tested, 0.6% active. inhibition, % (no concentration beside the values). Q9QR71; in the data active = inhibition mostly above about 10%, no sharp cut-off; inactive = mostly below about 6.7%;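 note: stock transfer was 7.5 nL into about 10 µL; 0% = median of vehicle wells and 100% = median of positive control wells; one replicate is shown; the record names a cut of 25% in any replicate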
Target sequence (Q9QR71 whole entry, looked up): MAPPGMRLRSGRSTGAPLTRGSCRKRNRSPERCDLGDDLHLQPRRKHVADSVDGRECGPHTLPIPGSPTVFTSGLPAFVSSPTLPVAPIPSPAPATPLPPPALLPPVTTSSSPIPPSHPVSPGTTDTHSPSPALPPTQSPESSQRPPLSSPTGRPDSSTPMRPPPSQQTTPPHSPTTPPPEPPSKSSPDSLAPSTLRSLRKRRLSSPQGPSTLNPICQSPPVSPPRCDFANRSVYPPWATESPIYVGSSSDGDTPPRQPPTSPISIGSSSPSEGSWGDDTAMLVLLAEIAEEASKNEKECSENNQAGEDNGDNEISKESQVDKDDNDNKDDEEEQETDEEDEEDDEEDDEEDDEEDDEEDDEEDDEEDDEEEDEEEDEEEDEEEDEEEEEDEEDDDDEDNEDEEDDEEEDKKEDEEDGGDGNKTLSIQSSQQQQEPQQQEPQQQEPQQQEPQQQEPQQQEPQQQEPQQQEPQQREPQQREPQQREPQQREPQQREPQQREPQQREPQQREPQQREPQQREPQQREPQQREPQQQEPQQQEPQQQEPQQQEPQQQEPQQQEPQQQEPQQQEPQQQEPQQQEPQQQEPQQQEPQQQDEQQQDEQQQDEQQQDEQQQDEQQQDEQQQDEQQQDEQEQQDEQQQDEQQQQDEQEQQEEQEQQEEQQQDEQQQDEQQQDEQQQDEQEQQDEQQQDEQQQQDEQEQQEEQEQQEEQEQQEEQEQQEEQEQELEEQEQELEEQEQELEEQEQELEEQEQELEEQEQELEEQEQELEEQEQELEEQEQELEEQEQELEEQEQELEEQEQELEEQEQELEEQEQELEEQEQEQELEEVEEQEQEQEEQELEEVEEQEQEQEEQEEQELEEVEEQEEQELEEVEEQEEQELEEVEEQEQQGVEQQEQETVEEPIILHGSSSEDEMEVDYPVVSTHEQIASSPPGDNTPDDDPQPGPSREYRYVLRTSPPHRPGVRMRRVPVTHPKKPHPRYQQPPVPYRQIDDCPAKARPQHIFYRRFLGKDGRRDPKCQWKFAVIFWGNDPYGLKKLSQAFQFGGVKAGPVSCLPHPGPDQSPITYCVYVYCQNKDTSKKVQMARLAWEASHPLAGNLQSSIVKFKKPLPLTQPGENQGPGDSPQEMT
ALR H2O2 inh: inhibitors of human sulfhydryl oxidase ALR; 290,000 tested, 3.8% active; P55789; purified ALR, DTT oxidation, H2O2 HRP-luminol luminescence; inhibition, % (concentration not given with the values);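 active = mean and each replicate at 75% or more; inconclusive = only one of the two met; inactive = neither met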;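 note: stock transfer was 7.5 nL into about 7.5 µL; 0% = neutral wells and 100% = wells with inactivated enzyme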
* hit, by the source's call; i = inactive; ? = inconclusive; / = not tested or not shown; & = joins results of further samples.

structure | Vif TR-FRET | Calb FLC | HNF4A DNA FP | B2AR ag | RanGTP-Impb inh | LANA-H2B inh | ALR H2O2 inh
Cc1c(-c2ccccc2)nc(-c2ccccc2)[nH]c1=O | -5% | 0 | 1.0 | -26 | -1.9 | 2.3 | -3
COc1ccc(C2=CC(=O)N(Nc3ccccc3)C2=O)cc1 | 2% | -18 | -1.5 | / | / | -4.3 | -2
COc1cc(C#Cc2ccc3cc(C(C)(C)O)oc(=O)c3c2)cc(OC)c1 | / | / | 1.8 | 4 | / | 6.0 | -2
O=S(=O)(Cc1ccco1)Cc1nc(-c2ccc(Cl)cc2)cs1 | / | -4 | 2.5 | 1 | 0.3 | 1.4 | -3
COc1ccc(NC(=O)c2ocnc2C)cc1OC | -4% | -7 | -1.6 | 7 | -3.4 | -0.6 | -10
Cc1ccccc1NC(=O)CSc1nc2ccccc2c2nc(CCn3cncc3C)nn12 | -8% | -7 | 3.5 | -17 | ? | 0.0 | -7
c1cncc(-c2nnc3n2N=C(c2cccs2)CS3)c1 | 30% | ? | -0.1 | -13 | 2.5 | 0.8 | /
Cn1c(SCC(=O)N2CCCC2)nc2ccccc21 | / | -12 | 2.0 | 13 | ? | 3.0 | -12
COc1ccc(CCNC(=O)COc2ccc3c(c2)OCO3)cc1 | 5% | / | -4.8 | 7 | / | i | -10
O=C(CN1CC(c2ccccc2)CC1=O)OCc1ccccc1F (stereo not given) | 7% | ? | 3.4 | 8 | -0.4 | -1.4 | -5
COc1ccc(NC(=O)CN(C)C(=O)c2ccc(-c3ccccc3Cl)o2)cc1 | -5% | -2 | -0.9 | 3 | -1.0 | -2.4 | 30
COc1cccc(CNc2ncn[nH]2)c1OCc1ccc(F)cc1 | 6% | -7 | 2.1 | 3 | 2.1 | -2.4 | -8
CC1(C)CC(=O)c2c(nn(-c3ccccc3)c2-c2ccncc2)C1 | 5% | 59 | 2.8 | -7 | 2.4 | 0.0 | 7
COC(=O)c1cn(CC(=O)NCc2ccco2)c2ccccc12 | 4% | 5 | 2.2 | / | ? | 2.4 | 5
C=CCN(c1ccccc1Cl)S(=O)(=O)c1cccc(C(=O)OCC(=O)N(C)C2CCS(=O)(=O)C2)c1 (stereo not given) | 1% | -21 | -0.4 | 0 | ? | 0.9 | 1
CC(C)=CCc1c([C@@H]2CCc3ccc(O)cc3O2)cc2c(c1O)OC(C)(C)C=C2 | / | 14 | 3.5 | / | 1.7 | -6.9 | -13
CC(C)CN(C(=O)c1cc([N+](=O)[O-])cc([N+](=O)[O-])c1)C1CCS(=O)(=O)C1 (stereo not given) | 8% | -2 | 0.0 | -2 | -4.7 | 7.7 | -19
CCCCN(CCCC)CC1OCc2ccccc2CO1 | -2% | -18 | -2.2 | -7 | 4.0 | -3.5 | -7
O=C(O)CCC(=O)Nc1ccccc1C(=O)N1CCN(c2ccc(Cl)cc2)CC1 | -2% | -5 | 2.4 | -2 | 1.4 | -0.2 | 14
CCOP(=O)(NC(c1ccccc1)c1nc2ccccc2[nH]c1=O)OCC (stereo not given) | -10% | -2 | 1.0 | -5 | -4.0 | 3.7 | /
CCOc1ccc(NC(=O)Cn2nnc(C(=O)NCc3ccc(OC)cc3)c2N)cc1 | -1% | 1 | -6.7 | -2 | 6.5 | -1.4 | -17
CN1C(=O)CC(N2CCN(CC(=O)N3CCCC3)CC2)C1=O (stereo not given) | -1% | -8 | -2.2 | 8 | ? | 0.5 | -2
C=CCNCCCOc1ccc(Cl)cc1Br | -4% | 2 | 2.6 | -5 | 6.6 | 2.6 | -15
O=C(/C=C/c1cccs1)c1cc(Cl)ccc1OC(=O)N1CCOCC1 | 2% | -6 | 1.8 | 26 | -0.3 | -2.2 | /
Cc1onc(C(=O)NC(C)c2ccccc2)c1[N+](=O)[O-] (stereo not given) | 11% | 11 | 3.1 | 10 | 4.8 | -4.3 | 0
CCn1ncc(C(=O)Nc2ccc(F)cc2)c1C | / | -3 | -3.6 | -4 | 2.2 | -1.8 | -2
CC1CN(CC(=O)Nc2ccccc2Sc2ccccc2)CC(C)O1 (stereo not given) | / | 4 | 2.7 | 2 | 3.2 | 1.4 | /
COCCN(C(=S)Nc1ccc(Cl)cc1OC)C1CCN(C(C)=O)CC1 | / | -9 | -4.0 | 20 | 0.2 | -4.4 | -36
COc1cccc(-n2c(Cc3cc(=O)[nH]c(=O)[nH]3)nnc2SCC(=O)N2CCCCCC2)c1 | 1% | / | 0.8 | -3 | / | 1.6 | -9
O=C(NCC(O)c1ccccc1)c1cccs1 (stereo not given) | -7% | -9 | -2.2 | -5 | -2.7 | -3.9 | /
COc1ccc(C2N(c3cc(Cl)ccc3OC)C(=O)C3CCCN32)cc1 (stereo not given) | -6% | -2 | 1.4 | 1 | 1.6 | 3.9 | -27
CCN1CC=C2C(C#N)=C(N)C(C#N)(C#N)[C@H](c3cccc(OC)c3OC)[C@H]2C1 | 18%&-7% | -17 | -49 | -2 | / | 17 | -1
CC1c2nc3ccccc3n2C(CC(=O)NC2CC2)C(=O)N1Cc1ccccc1 (stereo not given) | 0% | -18 | -3.1 | -4 | 4.7 | -1.3 | -7
COc1ccc(-c2cc(-c3n[nH]c(=S)n3-c3cccc4ccccc34)[nH]n2)cc1 | 33% | 54 | 0.5 | 11 | 5.0 | -1.7 | 32
CCOC(=O)C1CCN(C(=O)c2ccc(OCC)c(OCC)c2)CC1 | -1% | 0 | -0.3 | 7 | 1.2 | 0.1 | -14
O=C(Nc1cccc(Cl)c1)C1C2C=CC3(O2)C1C(=O)N(CCCN1CCCCC1)C3C(=O)NC1CCCCC1 (stereo not given) | / | 0 | 0.3 | -4 | -3.0 | 2.4 | 3
O=C(Cc1coc(-c2ccc(F)cc2)n1)N1CCOCC1 | 0% | -1 | 0.9 | -1 | 8.2 | -8.1 | -7
CCN(C[C@H]1N[C@@](CC)(C(=O)OC)[C@H]2C(=O)N(Cc3ccccc3)C(=O)[C@@H]12)C(=O)C1CCCCC1 | -2% | / | 6.6 | 7 | / | -35 | -4
Cc1ccc(C(=O)NC(=S)Nc2ccc(N3CCN(C(=O)c4ccco4)CC3)cc2)cc1 | / | / | -0.8 | 1 | / | -3.4 | 1
O=C1CCCC2=C1C(c1ccccn1)Nc1ccc(C(=O)c3ccccc3)cc1N2 (stereo not given) | / | 9 | -0.6 | -8 | -1.4 | -1.6 | -4
COc1cc(Nc2nc(-c3ccccc3)c3cc(C)ccc3n2)cc(OC)c1OC | 8% | 26 | 3.3 | -2 | 0.5 | 1.1 | /
Cc1cccc(-n2cc(-c3ccc([N+](=O)[O-])cc3)[nH]c2=S)c1 | 16% | -6 | 0.2 | 12 | -1.8 | / | /
Cc1ccc(C)c(NC(=O)CCN2CCN(C)CC2)c1 | / | -1 | 0.1 | -2 | -0.4 | 9.2 | -3
Nc1n[nH]c(S(=O)(=O)CCCc2ccccc2)n1 | 4% | 14 | 2.0 | 2 | 2.5 | 8.7 | /
CCC(OC(=O)c1nsc(Cl)c1Cl)C(=O)NCc1ccco1 (stereo not given) | ? | 1 | 0.1 | 3 | 2.1 | -3.2 | /
O=c1nc(-c2ccccc2)cc(-c2ccccc2)[nH]1 | ? | 50 | 3.8 | -7 | 2.6 | 4.0 | -10
COc1ccc(C(=O)COc2ccc(F)cc2)c(O)c1 | 0% | 2 | -2.8 | 2 | 5.0 | -3.3 | -4
Cc1ccc(CC(=O)Nc2cccc([N+](=O)[O-])c2)cc1 | 2% | -29 | 0.2 | -6 | 2.3 | 2.2 | -16
Cc1ccc2oc(-c3cccc(NC(=O)C4CCCO4)c3)nc2c1 (stereo not given) | 8% | ? | 1.6 | 0 | -2.8 | 0.3 | 1
O=C1NC(=Nc2ccccc2)c2ccc([N+](=O)[O-])cc21 | 1% | 4 | 1.3 | -5 | -0.3 | -1.7 | /
COc1ccc(/C=C(/NC(=O)c2ccccc2)C(=O)N/N=C/c2ccncc2)c(OC)c1 | 4% | -16 | 2.9 | 1 | 1.3 | -8.6 | -3
NC(=O)Cn1nnc(-c2ccc(NC(=O)c3ccc(F)cc3)cc2)n1 | 14% | -1 | 2.6 | -1 | -2.2 | -4.4 | -2
O=C(Nc1cnn(Cc2ccccc2)c1)c1cc2nc(-c3ccco3)cc(C(F)(F)F)n2n1 | 17% | 2 | -0.1 | -18 | 17* | -0.1 | -4
Cc1cc(C)c(S(=O)(=O)N2CCN(C(=O)c3ccc4c(c3)OCO4)CC2)c(C)c1 | / | -2 | 1.2 | -10 | -4.4 | -3.5 | -4
COc1ccc(OC)c(N2C(=O)C(Cl)=C(N3CCCCC3)C2=O)c1 | 4% | 14 | 3.1 | -2 | 2.5 | 4.1 | 1
COc1ccc(Nc2ncc3c(n2)CC(c2ccccc2)CC3=O)cc1 (stereo not given) | 0% | 0 | 3.5 | -7 | 1.2 | -1.0 | -3
CC(=O)c1cccc(CN2CCC(CO)(CCOc3ccccc3)CC2)c1 | / | -9 | 3.5 | -7 | -5.5 | -4.2 | -3
COc1ccc(CNC(=O)CN(Cc2ccc(Cl)cc2)S(C)(=O)=O)cc1 | -4% | -10 | 2.0 | -4 | -0.4 | -2.9 | -1
CCc1c(C)sc(NC(=O)c2ccccc2[N+](=O)[O-])c1C(N)=O | 15% | ? | -0.6 | -3 | 1.5 | 2.2 | 4
Cc1nn(-c2ccccc2)c(C)c1/C=N/NC(=O)c1cccs1 | / | 2 | 0.0 | -9 | 1.0 | 1.6 | -3

(listing goes on)
structure | Vif TR-FRET | Calb FLC | HNF4A DNA FP | B2AR ag | RanGTP-Impb inh | LANA-H2B inh | ALR H2O2 inh
COc1ccc(CNC(=O)C2CC(c3cc(C(F)(F)F)cc(C(F)(F)F)c3)=NO2)cc1 (stereo not given) | / | -14 | 9.0 | -8 | 4.4 | -1.6 | 1
COc1ccccc1NC(=O)C(=O)Nc1ccc2c(c1)N(C(=O)C1CC1)CCC2 | -4% | -10 | 0.5 | 3 | -2.1 | / | /
O=C(NCC(c1ccco1)N1CCN(c2ccccc2F)CC1)c1ccc2c(c1)OCO2 (stereo not given) | -4% | -6 | 2.9 | -4 | -0.6 | 0.8 | -4
CC(C)(C)C(=O)Nc1nnc(CSCc2ccccc2F)s1 | 5% | -9 | -2.7 | -12 | 6.1 | -1.5 | -3
COc1ccc(/C(N)=N/OC(=O)Cc2cccs2)cc1OC | 1% | 0 | 5.5 | 11 | 5.3 | 1.3 | -4
COc1ccccc1NS(=O)(=O)c1ccc(/C=C/C(=O)O)cc1 | -10% | -18 | -4.5 | 6 | -0.7 | -0.8 | -5
Cc1ccc(C2(C(F)(F)F)NC(=O)N3CCN=C3S2)cc1 (stereo not given) | 79% | -4 | 5.3 | -2 | -1.3 | -0.2 | 31
Cc1cc(Br)cnc1NC(=S)Nc1ccc(F)cc1F | -3% | -37 | -0.9 | -5 | -1.8 | -0.7 | -2
Cc1nn(C)c(C)c1/C=N/NC(=O)C(C)(C)Oc1ccc(Cl)cc1 | 24% | -16 | -2.2 | -6 | 6.8 | -3.7 | -6
O=C(/C=C/c1ccccc1)Nc1nc(-c2ccncc2)cs1 | / | 5 | 2.9 | 14 | -0.9 | 1.5 | -102
CCOC(=O)Nc1ccc2c(c1)N(C(=O)CN1CCN(C)CC1)c1ccccc1CC2 | / | -3 | -3.2 | -5 | -2.4 | 0.9 | -12
CC(C)NC(=O)NNC(=O)Cn1nnc(-c2cccc(Cl)c2Cl)n1 | / | 0 | 0.8 | -4 | -1.6 | -3.1 | 6

Screens: PubChem BioAssay, several laboratories

The order is random; 6.3% or so of the library scored in one or more.
